Bioassay records deposited in PubChem by PCMD.
Biofilm kill mix: mixtures killing C. albicans biofilm; C. albicans biofilm persisters + clotrimazole, fluorescence viability; primary screen in compound mixtures of four per well; 120,000 compounds, 0.02% hits; inhibition, % at 7.6 µM;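 active means inhibition above 30.3% in the primary screen of four-compound pools, then above 30% when the compound was retested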;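 further: compounds exposed to preformed 24 h biofilms for 48 h; the number belongs to the whole pool; some results filed as inactive read as strong as hits; inactives centre near 12; 0% = biofilm with clotrimazole alone and 100% = kill control; retested singly at about 60 µM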
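Test system: C. albicans CAF4-2 wild-type biofilms; buffer or medium: RPMI/MOPS medium, pH 7.0; schedule: 24 h biofilm formation, then 48 h compound exposure, 37 °C; detection: Alamar Blue fluorescence; measure: percent inhibition of biofilm viability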
Numbers without * were called inactive. Not all compounds are listed; count on the stated rates, not on these rows.

No.	SMILES	Biofilm kill mix
1	Cc1ccc(/C=C2/C(=O)NC(=O)N(Cc3ccc(F)cc3)C2=O)o1	28
2	O=C(Cn1nc(-c2ccccc2)ccc1=O)N1CCC2(CC1)OCCO2	8
3	O=C1/C(=C\c2cc3c(cc2Br)OCO3)N2CCC1CC2	1
4	C=CCn1c(=O)c(C=Nc2cccnc2Cl)c(O)n(CCCC)c1=O	17
5	O=C(c1ccc2c(c1)OCO2)C1CCCN(Cc2ccccn2)C1 (centres undefined)	5
6	CC(=NCCCn1ccnc1)c1c(O)n(C2CCCCC2)c(=O)[nH]c1=O	16
7	O=C1NC(=O)C(=Cc2ccc(N3CCOCC3)cc2)C(=O)N1	14
8	COC(=NC1CCCC1)C(O)c1c[nH]c2ccccc12 (centres undefined)	17
9	CCOC(=O)C(NC(=O)C(Cc1ccc(N(CCCl)CCCl)cc1)NC(C)=O)C(C)C (centres undefined)	17
10	COc1ccc(CN2C(=O)NC(=O)/C(=C\c3cc(OC)c(OC)c(OC)c3)C2=O)cc1	23
11	CC(=NCCC(c1ccccc1)c1ccccc1)c1c(O)n(C)c(=O)n(C)c1=O	10
12	CCOC(=O)C1(CCc2ccccc2)CCN(C2CCSCC2)CC1	17
13	C=CCN1C(=O)/C(=C/c2cc(C)n(-c3cccnc3)c2C)C(=O)NC1=S	8
14	O=C(CCNS(=O)(=O)c1ccccc1)Nc1ccc(Cl)cc1C(=O)c1ccccc1	12
15	O=c1[nH]c(=S)n(C2CC2)c(O)c1/C=N/Nc1cccc2ccccc12	18
16	CCOP(=O)(OCC)C(O)c1cccc([N+](=O)[O-])c1 (centres undefined)	17
17	CC(C)C[C@H]1C(=O)N2CCCC2[C@]2(O)O[C@](NC(=O)[C@@H]3C=C4c5cccc6[nH]cc(c56)CC4N(C)C3)(C(C)C)C(=O)N12 (some centres undefined)	3
18	CCN(CC)C(=O)c1ccc(NC(=O)COc2ccccc2F)cc1	16
19	Cc1cc(C=O)c(C)n1C1CC1	12
20	CC(=Nc1ccc2c(c1)CCC2)c1c(O)n(-c2ccccc2)c(=O)[nH]c1=O	9
21	Cc1cccc(OP(=O)(Nc2cccnc2)Oc2cccc(C)c2)c1	0
22	Cc1cccc(-n2c(O)c(/C=N/Nc3nc4c(c(=O)n(C)c(=O)n4C)n3C)c(=O)[nH]c2=S)c1	8
23	O=C1CN=C(c2ccc(Cl)cc2)c2oc3ccccc3c2N1	27
24	C=CCN1C(=O)/C(=C/c2ccc3c(c2)CCCN3CCC)C(=O)NC1=S	17
25	O=C(c1cccc(Cl)c1)C1CCCN(Cc2cccc3cnccc23)C1 (centres undefined)	18
26	Cc1cc(/C=C2\C(=O)NC(=O)N(Cc3ccco3)C2=O)c(C)n1-c1ccc(O)cc1	6
27	NS(=O)(=O)c1cccc(N2CCNCC2)c1	9
28	Cc1csc(=N)n1Cc1ccccc1	14
29	CNc1cc(Cl)c2nonc2c1[N+](=O)[O-]	18
30	COc1ccc(C(c2c(O)c3ccccc3oc2=O)c2c(C)n(C)n(-c3ccccc3)c2=O)cc1 (centres undefined)	8
31	C=CCn1c(O)c(C(C)=NCCC(c2ccccc2)c2ccccc2)c(=O)[nH]c1=O	8
32	CN1C(=O)N(C)C(=O)C(CCc2ccncc2)(CCc2ccncc2)C1=O	17
33	CC1(C)OC(c2ccccc2)=C/C(=C/C=C2C(=O)NC(=O)NC2=O)O1	11
34	CN[C@H]1C[C@H]2O[C@@](C)([C@H]1OC)n1c3ccccc3c3c4c(c5c6ccccc6n2c5c31)C(=O)NC4	24
35	Cc1ccccc1-n1c(-c2ccco2)nc2ccccc2c1=O	18
36	C=CC1CN2CCC1CC2c1[nH]c2ccccc2c1CCO (centres undefined)	16
37	O=C(CNC(=O)c1ccc(Cl)cc1)Nc1ccc(Br)cc1C(=O)c1ccccc1	9
38	Cc1ccc(/C=C2\C(=O)NC(=O)N(CCc3ccc(F)cc3)C2=O)s1	21
39	CC(=O)N1CCN(CC(=O)Nc2ccc(C#N)c(Cl)c2)CC1	18
40	CCn1c(O)c(C=NCCN2CCOCC2)c(=O)n(CC)c1=S	16
41	COc1ccc(CN2C(=O)NC(=O)/C(=C/c3ccc([N+](=O)[O-])s3)C2=O)cc1	15
42	COc1cccc(NC(=O)N2CCC3(CC2)OCCO3)c1	26
43	CC(C)Oc1ccc(C2(C#N)CC[N+](C)(C)CC2)cc1	10
44	Cc1ccc(CN2C(=O)CN=C(c3ccccc3)c3ccccc32)cc1	12
45	Cn1c(O)c(C=Nc2ccccc2-c2ccccc2)c(=O)n(C)c1=O	31
46	COc1ccn(C)c(=O)c1C#N	12
47	CN1CCN(C(=S)SCC(=O)Nc2ccc(Cl)cc2C(=O)c2ccccc2)CC1	20
48	Cc1cc(C=C2C(=O)NC(=O)NC2=O)c(C)n1-c1cccnc1	13
49	Cc1cccc(-n2c(O)c(C=Nc3ccc(Br)cn3)c(=O)[nH]c2=O)c1	15
50	CCOC(=O)COc1ccc2c(c1)c(C(C)=O)c(C)n2Cc1ccccc1	11
51	CC(=O)c1cn(Cc2ccc(C#N)cc2)c2ccccc12	11
52	Cc1cccc(-n2c(C)nc3ccccc3c2=O)c1C	16
53	S=P(NC1CCCCC1)(N1CC1)N1CC1	23
54	CN(C)S(=O)(=O)c1cc(NC(=O)C[N+]23CCN(CC2)CC3)ccc1Cl	9
55	Cc1cccc(-n2c(O)c(/C=N/N3CCOCC3)c(=O)[nH]c2=S)c1	-2
56	C=CCn1c(O)c(C=NCCCn2ccnc2)c(=O)[nH]c1=O	27
57	CCP(=S)(CC)c1ccc(N(C)C)cc1	6
58	CCOP(=O)(OCC)C(NC(=O)c1cccc([N+](=O)[O-])c1)C(Cl)(Cl)Cl (centres undefined)	25
59	CCNC(=S)N(C)CCc1cc2c(c(OC)c1C=C1C(=O)N(C)C(=O)N(C)C1=O)OCO2	13
60	C#C[C@]1(O)CC[C@H]2[C@@H]3CCC4=CC(=O)CC[C@]4(C)[C@H]3CC[C@@]21C	3

The listing continues:
No.	SMILES	Biofilm kill mix
61	O=C(N/N=C\C1C(=O)NC(=S)N(c2ccccc2)C1=O)c1ccc(O)cc1 (centres undefined)	16
62	CC(=O)OC1N=C(c2ccccc2Cl)c2cc(Br)ccc2N(C)C1=O (centres undefined)	24
63	CN(C)C(=Nc1ccccc1)P(=S)(N(C)C)N(C)C	13
64	O=C(N/N=C/c1c(O)n(CCc2ccccc2)c(=O)[nH]c1=O)c1ccncc1	12
65	S=C=Nc1ccccn1	8
66	CCN1CCN(c2ccc([N+](=O)[O-])cc2C#N)CC1	10
67	C=CCn1c(O)c(/C(C)=N/N2CCN(C)CC2)c(=O)[nH]c1=O	10
68	C/C(=N\N1CCCCCC1)c1c(O)n(-c2ccccc2C)c(=O)[nH]c1=O	27
69	COC(=O)c1nc(-c2ccc3c(n2)C(=O)C(N)=C(OC)C3=O)c(N)c(-c2ccc(OC)c(OC)c2O)c1C	25
70	COC1=CC(=O)OC(/C=C/c2ccccc2)C1 (centres undefined)	6
71	COc1cc2c(cc1O)C[C@H]1NCCc3cc4c(c-2c31)OCO4	17
72	COc1cccc(CN2CCCC(C(=O)c3ccccc3SC)C2)c1O (centres undefined)	-1
73	CCc1ccc(-n2c(O)c(/C=N/NC(=O)c3ccncc3)c(=O)[nH]c2=O)cc1	15
74	COc1ccc(-n2c(O)c(/C(C)=N/Nc3ccccc3)c(=O)[nH]c2=O)cc1	6
75	O=C(O)C(Cc1cnc[nH]1)NS(=O)(=O)c1ccc(Cl)cc1 (centres undefined)	11
76	CN1C(=O)C(=Cc2ccc(N3CCOCC3)o2)C(=O)N(C)C1=S	16
77	CC(=O)C1C2c3ccccc3O[C@@]1(C)N=c1s/c(=C/c3ccoc3)c(=O)n12 (some centres undefined)	19
78	O=C(O)CCn1cc(C=C2C(=O)NC(=S)NC2=O)c(-c2ccccc2)n1	15
79	CCN(CC)CC(O)c1ccc(C2CCCC2)cc1 (centres undefined)	14
80	Cc1cccc2c1N(N=O)CCC2	19

By substructure: those above with fluorine
No.	SMILES	Biofilm kill mix
1	Cc1ccc(/C=C2/C(=O)NC(=O)N(Cc3ccc(F)cc3)C2=O)o1	28
18	CCN(CC)C(=O)c1ccc(NC(=O)COc2ccccc2F)cc1	16
38	Cc1ccc(/C=C2\C(=O)NC(=O)N(CCc3ccc(F)cc3)C2=O)s1	21

Remaining list, next part
entry	SMILES	Biofilm kill mix
81	Cc1cc(/C=C2\C(=O)NC(=O)N(c3cccc(Br)c3)C2=O)c(C)n1C	17
82	Cc1cc(C)nc(N2Cc3ccccc3C2=N)n1	5
83	Cc1ccc(-c2nn(Cc3ccccc3)cc2C=O)cc1C	18
84	COc1ccccc1OP(=O)(Nc1cccnc1)Oc1ccccc1OC	6
85	Cc1oc(-c2ccccc2)nc1CN1C(=O)C(C)N=C(c2ccccc2F)c2cc(Cl)ccc21 (centres undefined)	15
86	O=c1cc(CN2CC=C(c3ccccc3)CC2)c2c(ccc3ccccc32)o1	14
87	CCOP(=O)(OCC)C(O)c1ccc(OC)cc1OC (centres undefined)	10
88	CN1CCN(c2cc(N3CCNCC3)ccc2[N+](=O)[O-])CC1	6
89	CCOC(=O)CNC(=O)CNC(=O)C(Cc1ccc(N(CCCl)CCCl)cc1)NC(C)=O (centres undefined)	24
90	CC(=O)c1ccc(OC(=O)N(C)c2ccccc2)cc1	7
91	COc1ccc(OC)c(CN2CCCC(C(=O)c3sccc3C)C2)c1 (centres undefined)	34
92	CCOc1ccc(N=C2SCCCN2C)cc1	8
93	C=CCn1c(O)c(C=Nc2c(C)n(C)n(-c3ccccc3)c2=O)c(=O)[nH]c1=O	25
94	CCOP(=O)(OCC)c1ccc(O)cc1	16
95	COc1ccc2c(c1)c(C(=O)O)c(C)n2C(C)C	12
96	O=c1c2ccccc2nc(-c2ccc([N+](=O)[O-])cc2)n1-c1ccccc1	-1
97	COc1ccc(C2CC(c3c(O)n(CCc4ccccc4)c(=O)[nH]c3=O)=NN2)cc1OC (centres undefined)	32
98	O=c1[nH]c(=S)[nH]c(O)c1N=Nc1cccc(S(=O)(=O)N2CCOCC2)c1	12
99	NCCCC(=O)OC1N=C(c2ccccc2Cl)c2cc(Br)ccc2NC1=O (centres undefined)	9
100	Cc1ccc(N2C(=O)NC(=O)/C(=C\C=C\c3ccco3)C2=O)cc1	20
101	NC(=O)c1ccc(C(=O)Nc2ccc([As](=O)(O)O)cc2)cc1	14
102	O=c1[nH]c(=S)n(-c2ccc(F)cc2)c(O)c1/C=N/N1CCOCC1	6
103	COC(=O)c1ccc(N2CCN(C)CC2)c([N+](=O)[O-])c1	16
104	CC(C)n1c(=O)c(C=Nc2ccc(F)cc2)c(O)n(Cc2ccco2)c1=O	9
105	Cn1c(O)c(C=NCCN2CCNCC2)c(=O)n(C)c1=O	12
106	COc1ccc2oc3c(c2c1)NC(=O)CN=C3c1ccccc1	2
107	O=C1CCN(C(=O)C(Cl)Cl)N1	9
108	Cc1cccc(-n2c(C)nc3ccccc3c2=O)n1	12
109	O=c1[nH]c(=O)n(Cc2ccco2)c(O)c1C=NCCN1CCNCC1	16
110	COc1ccc(OC)c(N=Cc2c(O)n(Cc3ccccc3)c(=S)[nH]c2=O)c1	4
111	CCN(CC)P(=O)(c1nccn1C)N(CC)CC	10
112	Nc1nc(SCCC(F)=C(F)F)n[nH]1	17
113	O=C(Nc1cccc(Cl)c1)OC1CN2CCC1CC2 (centres undefined)	19
114	CC(ON1CC1(C(F)(F)F)C(F)(F)F)(C(N)=O)C(N)=O (centres undefined)	11
115	Clc1ccc(OCC#CCN2CCCCCC2)cc1	17
116	COc1cccc(CCNCc2cccc(C(F)(F)F)c2)c1	7
117	CC(C)C[C@H](NC(=O)[C@@H]1CCCN1C(=O)[C@@H](N)Cc1ccc(O)cc1)C(=O)NCC(N)=O	11
118	CN1CCN(C(=O)Cc2ccccc2)CC1	30
119	COc1ccc(F)cc1C(=O)C1CCCN(Cc2cnc(C)s2)C1 (centres undefined)	14
120	COc1cccc(C2CC3C(=O)C=CC2N3Cc2ccccc2)c1 (centres undefined)	17
121	CN1C2CCC1CC(OC(=O)c1ccc([N+](=O)[O-])cc1)C2 (centres undefined)	14
122	O=C1NC(=O)C(=Cc2cc([N+](=O)[O-])ccc2N2CCCCC2)C(=O)N1	18
123	Cc1[nH]c2ccccc2c1C(=O)C(=O)N1CCC2(CC1)OCCO2	14
124	CC1(C)C2([N+](=O)[O-])CN3CC1([N+](=O)[O-])CN(C2)C3c1ccccn1 (centres undefined)	15
125	COc1ccc(-n2c(C)cc(C(=O)C[N+]34CCN(CC3)CC4)c2C)cc1	14
126	COc1ccc(C(C)=O)cc1CC(C(=O)c1ccc(Br)cc1)N(C)C (centres undefined)	2
127	O=[N+]([O-])c1ccc(Nc2ccccc2)cc1	14
128	Cc1ccc(N2C(=O)NC(=O)/C(=C\c3cc(C)n(-c4sc5c(c4C#N)CCCC5)c3C)C2=O)cc1	20
129	Cc1cc(C)cc(N2C(=O)NC(=O)/C(=C\C=C\c3ccco3)C2=O)c1	13
130	C=CCN1C(=O)NC(=O)/C(=C/c2ccc(N(C)C)c(Br)c2)C1=O	25
131	CC(C)Cc1nnc(NC(=O)CCC(=O)N2CCN(CCOC(c3ccccc3)c3ccccc3)CC2)s1	10
132	CCC(=O)N1N=C(c2c(O)n(CCc3ccccc3)c(=O)[nH]c2=O)CC1c1ccc(OC)c(OC)c1 (centres undefined)	23

In the list so far, these have a CF3 group:
entry	SMILES	Biofilm kill mix
114	CC(ON1CC1(C(F)(F)F)C(F)(F)F)(C(N)=O)C(N)=O (centres undefined)	11
116	COc1cccc(CCNCc2cccc(C(F)(F)F)c2)c1	7

3 entries drawn at random from the list so far:
entry	SMILES	Biofilm kill mix
121	CN1C2CCC1CC(OC(=O)c1ccc([N+](=O)[O-])cc1)C2 (centres undefined)	14
130	C=CCN1C(=O)NC(=O)/C(=C/c2ccc(N(C)C)c(Br)c2)C1=O	25
125	COc1ccc(-n2c(C)cc(C(=O)C[N+]34CCN(CC3)CC4)c2C)cc1	14
